Bioassay records deposited in PubChem by Broad Institute.
NOMO-1 viab – STK33 inhibitor candidate reducing NOMO-1 cell viability; NOMO-1 AML viability, CellTiter-Glo luminescence, 72 h; inhibition, % (concentration not given with the values); 37,000 compounds, 7.5% hits;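 active = most replicates above 80%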;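 note: wells of about 30 µL received 25 nL stock; 0% = median of vehicle wells and 100% = reference inhibitor level; the first replicate is given; inactives centre near 10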
An asterisk follows results filed as active. This is a subset, so the mix of outcomes need not match the whole.

Sample of the layout:
SMILES | NOMO-1 viab
C[C@@H]1CN([C@@H](C)CO)C(=O)c2cc(NC(=O)CCN3CCOCC3)ccc2O[C@@H]1CN(C)S(C)(=O)=O | 8
Cn1c(=O)c2c(nc(SCC(=O)NC(C)(C)C)n2Cc2ccccc2F)n(C)c1=O | 1

All compounds of this part, from the start:
SMILES | NOMO-1 viab
C[C@@H]1CN([C@@H](C)CO)C(=O)c2cc(NC(=O)CCN3CCOCC3)ccc2O[C@@H]1CN(C)S(C)(=O)=O | 8
Cn1c(=O)c2c(nc(SCC(=O)NC(C)(C)C)n2Cc2ccccc2F)n(C)c1=O | 1
Cc1c(C)c(C)c(S(=O)(=O)N=C(N)N)c(C)c1C | -19
Cc1noc(C)c1S(=O)(=O)N(C)C[C@H]1Oc2ccc(NC(=O)CCCCCC(=O)Nc3ccccc3N)cc2CC(=O)N([C@@H](C)CO)C[C@@H]1C | 44
C[C@H](CO)N1C[C@H](C)[C@@H](CN(C)C(=O)Nc2ccccc2)Oc2c(NC(=O)C3CCOCC3)cccc2C1=O | 14
C[C@H]1CN([C@@H](C)CO)C(=O)c2cccc(NS(=O)(=O)c3cccs3)c2O[C@@H]1CN(C)S(=O)(=O)c1cn(C)cn1 | 11
C[C@H]1CN([C@@H](C)CO)C(=O)c2cc(NC(=O)NC3CCCCC3)ccc2O[C@@H]1CN(C)Cc1ccccc1 | -1
C[C@@H]1CN([C@H](C)CO)C(=O)c2cccc(NC(=O)c3nc4ccccc4s3)c2O[C@H]1CN(C)S(=O)(=O)c1cn(C)cn1 | 2
C[C@@H]1CN([C@H](C)CO)C(=O)Cc2cc(NC(=O)Nc3cccc4ccccc34)ccc2O[C@H]1CN(C)S(=O)(=O)c1ccccc1 | -8
C[C@@H]1CN([C@@H](C)CO)C(=O)c2cccc(NS(=O)(=O)c3cccs3)c2O[C@@H]1CN(C)S(=O)(=O)c1ccc(F)cc1 | 51
O=C(c1ccccc1)c1cc[n+](Cc2ccccn2)cc1 | 63
C[C@@H]1CN([C@@H](C)CO)C(=O)c2cc(NC(=O)Nc3cccc4ccccc34)ccc2O[C@H]1CN(C)C(=O)Nc1cccc2ccccc12 | 8
Cc1ccc(S(=O)(=O)Nc2ccc3c(c2)C(=O)N([C@H](C)CO)C[C@H](C)[C@H](CN(C)C(=O)CCC(F)(F)F)OCCCC[C@@H](C)O3)cc1 | 11
O=C(NCc1ccco1)C1CC(c2ccc(Cl)c(Cl)c2)=NO1 (configuration not stated) | 29
COc1ccc(CN(C)C[C@H]2Oc3ccc(NC(=O)Nc4cccc5ccccc45)cc3CC(=O)N([C@@H](C)CO)C[C@H]2C)cc1 | 19
CCOC(=O)C(C)Sc1nc2ccc(I)cc2c(=O)n1-c1ccccc1OC (configuration not stated) | 6
Cc1noc(C)c1NC(=O)N(C)C[C@H]1Oc2c(NC(=O)c3nc4ccccc4s3)cccc2C(=O)N([C@H](C)CO)C[C@@H]1C | 7
O=C(C1CC1(c1ccccc1)c1ccccc1)N1CCCCC1 (configuration not stated) | 22
Cc1ccc(S(=O)(=O)Nc2ccc3c(c2)C(=O)N([C@H](C)CO)C[C@H](C)[C@H](CN(C)C)O3)cc1 | -9
C[C@@H]1CCCCO[C@H](CN(C)C(=O)Nc2ccccc2)[C@@H](C)CN([C@H](C)CO)C(=O)c2cc(NS(=O)(=O)c3cccs3)ccc2O1 | 9
Cc1noc(C)c1S(=O)(=O)Nc1cccc2c1O[C@@H](CN(C)CC1CC1)[C@@H](C)CN([C@@H](C)CO)C2=O | -27
CNC[C@H]1Oc2c(NS(=O)(=O)c3ccc(C)cc3)cccc2C(=O)N([C@H](C)CO)C[C@H]1C | 7
C[C@@H]1CN([C@@H](C)CO)C(=O)c2cccc(NC(=O)Nc3ccc4c(c3)OCO4)c2O[C@H]1CN(C)S(=O)(=O)c1ccc(Cl)cc1 | 28
CCOC(=O)c1c(NC(=O)CSc2ncn[nH]2)sc2c1CCCC2 | 22
COc1ccc(-c2cc(C)nc(SCC(=O)Nc3ccccc3F)n2)cc1 | 12

Of the compounds above, these contain a halogen.
SMILES | NOMO-1 viab
Cn1c(=O)c2c(nc(SCC(=O)NC(C)(C)C)n2Cc2ccccc2F)n(C)c1=O | 1
C[C@@H]1CN([C@@H](C)CO)C(=O)c2cccc(NS(=O)(=O)c3cccs3)c2O[C@@H]1CN(C)S(=O)(=O)c1ccc(F)cc1 | 51
Cc1ccc(S(=O)(=O)Nc2ccc3c(c2)C(=O)N([C@H](C)CO)C[C@H](C)[C@H](CN(C)C(=O)CCC(F)(F)F)OCCCC[C@@H](C)O3)cc1 | 11
O=C(NCc1ccco1)C1CC(c2ccc(Cl)c(Cl)c2)=NO1 (configuration not stated) | 29
CCOC(=O)C(C)Sc1nc2ccc(I)cc2c(=O)n1-c1ccccc1OC (configuration not stated) | 6
C[C@@H]1CN([C@@H](C)CO)C(=O)c2cccc(NC(=O)Nc3ccc4c(c3)OCO4)c2O[C@H]1CN(C)S(=O)(=O)c1ccc(Cl)cc1 | 28
COc1ccc(-c2cc(C)nc(SCC(=O)Nc3ccccc3F)n2)cc1 | 12

Carrying on.
SMILES | NOMO-1 viab
COc1ccc(S(=O)(=O)Nc2cccc3c2O[C@@H](CN(C)CC2CCCCC2)[C@@H](C)CN([C@@H](C)CO)C3=O)cc1 | 15
C[C@H](CO)N1C[C@H](C)[C@@H](CN(C)C(=O)Nc2ccc(F)cc2)Oc2c(NC(=O)Nc3ccc(F)cc3)cccc2C1=O | 0
C[C@@H]1CN([C@@H](C)CO)C(=O)c2cc(NC(=O)Nc3ccc(C(F)(F)F)cc3)ccc2O[C@@H]1CN(C)Cc1ccccc1 | 119*
COc1cccc(C(=O)NCCN=C2NS(=O)(=O)c3ccccc32)c1 | 6
C[C@@H]1CN([C@H](C)CO)C(=O)c2cccc(NC(=O)Nc3cccc4ccccc34)c2O[C@H]1CN(C)S(=O)(=O)c1ccccc1 | 14
C[C@@H]1CN([C@H](C)CO)C(=O)c2cccc(NC(=O)c3ccc(-c4nccs4)cc3)c2O[C@@H]1CN(C)C | 11
CC(C)N(C(=O)CSc1nc2ccc(Cl)cc2[nH]1)c1ccccc1 | 4
CSc1n[nH]c(NC(=O)c2ccccc2Cl)c1S(=O)(=O)c1ccc(Cl)cc1 | 35
NC(=O)CSc1nc(N)c(-c2ccccc2)c(=O)[nH]1 | 15
CNC[C@@H]1Oc2ccc(NS(=O)(=O)c3ccccc3)cc2CC(=O)N([C@H](C)CO)C[C@H]1C | 0
C[C@@H]1CN([C@@H](C)CO)C(=O)Cc2cc(NS(=O)(=O)c3cn(C)cn3)ccc2O[C@@H]1CN(C)C(=O)Nc1ccc(F)cc1 | -13
CNc1ccc(S(=O)(=O)c2ccc(NC)cc2)cc1 | 36
COc1ccc(NC(=O)CC(=O)Nc2ccc(OC)cc2)cc1 | 18
C[C@@H]1CCCCO[C@@H](CN(C)Cc2ccc(C(=O)O)cc2)[C@@H](C)CN([C@H](C)CO)C(=O)c2cc(NS(=O)(=O)c3ccc(Cl)cc3)ccc2O1 | 11
Cc1cc(C(=O)Nc2cccc3c2O[C@H](CN(C)C(=O)Nc2ccc(C(F)(F)F)cc2)[C@@H](C)CN([C@@H](C)CO)C3=O)n(C)n1 | 10
O=[N+]([O-])c1cccc(S(=O)(=O)NCCOc2cccc3cccnc23)c1 | -4
C[C@H]1CN([C@@H](C)CO)C(=O)Cc2cc(NC(=O)Nc3ccc(F)cc3)ccc2O[C@H]1CN(C)Cc1ccccc1 | 11
C[C@H]1CN([C@@H](C)CO)C(=O)c2cccc(NC(=O)Nc3ccc(F)cc3)c2O[C@@H]1CN(C)Cc1ccncc1 | -8
COC(=O)c1cccc(NC(=O)COc2cccc([N+](=O)[O-])c2)c1 | 22
Cc1noc(C)c1NC(=O)N(C)C[C@@H]1Oc2ccc(NC(=O)C3CC3)cc2C(=O)N([C@H](C)CO)C[C@@H]1C | 15
C[C@H]1CN([C@@H](C)CO)C(=O)c2cccc(NC(=O)NC3CCCCC3)c2O[C@@H]1CN(C)Cc1ccc(Cl)c(Cl)c1 | 68
C[C@@H]1CN([C@H](C)CO)C(=O)c2cccc(NC(=O)C3CCCCC3)c2O[C@H]1CN(C)S(=O)(=O)c1cccs1 | 22
C[C@H](CO)N1C[C@H](C)[C@@H](CN(C)C(=O)Nc2ccc(F)cc2)Oc2c(NC(=O)c3ccc(-c4nccs4)cc3)cccc2C1=O | 13
C[C@H](CO)N1C[C@H](C)[C@@H](CN(C)C(=O)Nc2ccc(F)cc2)Oc2c(NS(=O)(=O)c3cccs3)cccc2C1=O | 26
O=C(Cn1c(NCCCO)nc2ccccc21)c1ccc(Cl)c(Cl)c1 | 20

(continued)
SMILES | NOMO-1 viab
C[C@H](CO)N1C[C@H](C)[C@H](CN(C)S(=O)(=O)c2ccc(Cl)cc2)Oc2ccc(N(C)C)cc2CC1=O | 58
CC(=O)CSc1nnc(-c2cccnc2)o1 | 11
C[C@H]1CN([C@@H](C)CO)C(=O)c2cccc(NC(=O)c3ccc(-c4nccs4)cc3)c2O[C@@H]1CN(C)C(=O)Nc1ccc(C(F)(F)F)cc1 | 5
Cc1noc(C)c1S(=O)(=O)Nc1ccc2c(c1)C(=O)N([C@@H](C)CO)C[C@H](C)[C@H](CN(C)Cc1ccc3c(c1)OCO3)O2 | 14
C[C@H](CO)N1C[C@H](C)[C@H](CN(C)Cc2ccc(C(F)(F)F)cc2)Oc2ccc(NS(=O)(=O)c3ccc(Cl)cc3)cc2C1=O | 58
C[C@H]1CN([C@@H](C)CO)C(=O)c2cccc(NC(=O)c3nc4ccccc4s3)c2O[C@@H]1CN(C)S(=O)(=O)c1ccccc1 | 34
Cc1ccc(S(=O)(=O)Nc2ccc3c(c2)C(=O)N([C@H](C)CO)C[C@H](C)[C@H](CN(C)C(=O)Nc2ccccc2)OCCCC[C@@H](C)O3)cc1 | 43
O=C(Oc1ccccc1)c1cccc(COC(=O)c2cnccn2)c1 | -17
COc1ccc(NC(=O)N(C)C[C@@H]2Oc3ccc(NC(=O)C4CCCCC4)cc3C(=O)N([C@H](C)CO)C[C@@H]2C)cc1 | 15
C[C@H](CO)N1C[C@H](C)[C@H](CN(C)Cc2ccc(C(F)(F)F)cc2)Oc2c(NC(=O)C3CC3)cccc2C1=O | 9
C[C@H]1CN([C@@H](C)CO)C(=O)Cc2cc(NC(=O)c3ccncc3)ccc2O[C@@H]1CN(C)C(=O)Nc1ccc2c(c1)OCO2 | -6
NC(=O)CCCCC1CCSS1 (configuration not stated) | 5
O=C(COc1ccccc1[N+](=O)[O-])Nc1ccccc1N1CCOCC1 | 21
C[C@H]1CN([C@@H](C)CO)C(=O)c2cc(NC(=O)Cc3cn(C)c4ccccc34)ccc2O[C@H]1CN(C)S(=O)(=O)c1cn(C)cn1 | 5
Cc1ccc(-c2ccc(CCC(=O)O)n2CC2CCCO2)cc1 (configuration not stated) | -3
C[C@H](CO)N1C[C@H](C)[C@@H](CN(C)C(=O)Nc2ccc(F)cc2)Oc2ccc(N(C)C)cc2C1=O | 7
C[C@H](CO)N1C[C@H](C)[C@@H](CN(C)C(=O)Nc2ccc3c(c2)OCO3)Oc2ccc(NC(=O)Nc3ccc(C(F)(F)F)cc3)cc2C1=O | 41
Cc1cc(C)c(S(=O)(=O)N(CC(=O)Nc2ccc(C(N)=O)cc2)C2CCCCC2)c(C)c1 | 21
C[C@H]1CN([C@@H](C)CO)C(=O)Cc2cc(NC(=O)c3ccncc3)ccc2O[C@H]1CN(C)Cc1ccccc1 | 4
Cc1noc(C)c1NC(=O)Nc1ccc2c(c1)CC(=O)N([C@@H](C)CO)C[C@H](C)[C@H](CN(C)S(=O)(=O)c1ccc(Cl)cc1)O2 | 19
C[C@H]1CN([C@@H](C)CO)C(=O)c2cc(NC(=O)Nc3ccccc3)ccc2O[C@H]1CN(C)Cc1ccc2c(c1)OCO2 | 92*
Cc1ccc(S(=O)(=O)Nc2cccc3c2O[C@@H](CN(C)Cc2ccncc2)[C@@H](C)CN([C@H](C)CO)C3=O)cc1 | 5
C[C@@H]1CN([C@H](C)CO)C(=O)Cc2cc(NS(=O)(=O)c3cn(C)cn3)ccc2O[C@@H]1CN(C)CC1CCCCC1 | -22
COc1ccc(CN(C)C[C@@H]2Oc3c(NS(=O)(=O)c4cn(C)cn4)cccc3C(=O)N([C@H](C)CO)C[C@@H]2C)cc1 | 8
O=C(CSc1nc2ccccc2c(=O)n1-c1ccc(Cl)cc1)Nc1cccc(Cl)c1 | 34

Carrying on.
SMILES | NOMO-1 viab
COC(=O)c1cc(NC(=O)CN(c2ccc(F)c(Cl)c2)S(C)(=O)=O)ccc1Cl | 96*
COc1ccc(S(=O)(=O)N(C)C[C@H]2Oc3ccc(NC(=O)NC(C)C)cc3C(=O)N([C@H](C)CO)C[C@@H]2C)cc1 | 4
COc1ccc(N(CC(=O)Nc2ccc(C)cc2C)S(C)(=O)=O)cc1 | 5
COC(=O)c1cccc(NC(=O)COc2cc(C)ccc2C)c1 | 20
C[C@H]1CN([C@@H](C)CO)C(=O)c2cccc(NC(=O)C3CCCCC3)c2O[C@H]1CN(C)C(=O)NC1CCCCC1 | -16
C[C@@H]1CN([C@H](C)CO)C(=O)c2cc(NC(=O)Nc3ccc(C(F)(F)F)cc3)ccc2O[C@H]1CN(C)Cc1ccncc1 | -6
C[C@H]1CN([C@@H](C)CO)C(=O)c2cccc(NC(=O)NC3CCCCC3)c2O[C@@H]1CN(C)Cc1ccc(C(F)(F)F)cc1 | 63
COC(=O)CNC(c1ccccc1)c1cc(Br)ccc1N=Cc1ccccc1O (configuration not stated) | 68
C[C@@H]1CN([C@H](C)CO)C(=O)c2cccc(NS(=O)(=O)c3ccc(F)cc3)c2O[C@@H]1CN(C)S(=O)(=O)c1cccs1 | 30
CC(Sc1ncnc2sc3c(c12)CCCC3)C(=O)Nc1cc(C(F)(F)F)ccc1Cl (configuration not stated) | 19
C[C@@H]1CN([C@H](C)CO)C(=O)c2cc(NS(=O)(=O)c3cccs3)ccc2O[C@H]1CN(C)Cc1ccc(-c2ccccc2)cc1 | 20
NC(=O)C1(N2CCCCC2)CCN(CC(=O)Nc2ccc(Cl)cc2)CC1 | -8
Cc1ccc(S(=O)(=O)N(C)C[C@H]2Oc3c(NC(=O)c4cnccn4)cccc3C(=O)N([C@H](C)CO)C[C@@H]2C)cc1 | 15
CC(=O)OCC(Cc1ccccc1)NC(=O)C(Cc1ccccc1)NC(=O)c1ccccc1 (configuration not stated) | 40
C[C@H](CO)N1C[C@H](C)[C@H](CN(C)Cc2ccccc2)Oc2c(NC(=O)C3CCCCC3)cccc2C1=O | 8
